Screens as filed in PubChem.
RanGTP-Imp inh = inhibitors of RanGTP-importin-beta interaction, primary screen, biochemical, FRET, CFP-Ran, YFP-importin-beta, homogeneous | cell-free CFP-Ran/YFP-importin-beta FRET ratio | inhibition, % (test concentration not listed) | 1.1% of 300,000 active | AID 2216, 2009;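 active means most replicates above 15%; inconclusive means exactly half above 15%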;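 further: 0% = DMSO wells and 100% = Ran loaded with GDP instead of GTP; wells of about 40 µL received 100 nL stock; the first replicate is given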
Beta cell apopt = inhibitors of cytokine-induced beta cell apoptosis, primary screen, luminescence. INS-1E cytokine-induced death, ATP luminescence, 48 h; percent of positive-control rescue, neutral wells zero. protection from apoptosis, % (no concentration beside the values). 0.8% of 300,000 active;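 active means all replicates at 75% or more, or half of them and the mean; inconclusive means half reach 75% but not the mean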;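 further: 0% = cytokine-treated negative control wells and 100% = positive control rescue; higher means more ATP so stronger rescue from cytokine killing; wells of about 40 µL received 100 nL stock; the first replicate is given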
Vif A3G = inhibitors of Vif binding to APOBEC3G peptide, primary screen, biochemical, TR-FRET, GST-Vif 1-94, biotin-A3G peptide, dose response retest (AID 1117319); Virion infectivity factor (Human immunodeficiency virus type 1 group M subtype B (isolate …; TR-FRET GST-Vif / biotin-A3G peptide binding; higher % means a stronger effect; test concentration not given here; strong numbers were not always called active; one-dose inhibition, %; IC50 in µM for titrated hits; 0.57% of 260,000 active;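 active means above the screen mean plus three standard deviations and confirmed in dose response; inconclusive means results disagree or hit not tested in dose response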;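 further: Vif residues 1-94 fused to GST binding biotinylated APOBEC3G peptide 110-148; 0% = full assay without inhibitor and 100% = GST in place of GST-Vif; retest series ran down from 100 µM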
Ecoli rRNA inh = reduced GFP signal of wild-type E. coli, primary screen, bacterial rRNA inhibitor project, GFP/RFP fluorescence, OD600, single point | GFP signal change (wild-type ribosome), % (no concentration beside the values) | E. coli WT GFP vs humanized-ribosome RFP mutants, 24 h; hits give low values; DMSO median 0, no signal -100 | 1.6% of 350,000 active;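 active means significant combined selectivity score with lowered wild-type GFP, culture density cut under 30%, mutant RFP and density less affected; inactive means any of these conditions unmet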; further: one replicate is shown; some compounds called inactive have numbers as strong as hits
MLL AF4-AF9 inh = inhibitors of AF4 peptide binding to AF9, primary screen, biochemical, AlphaScreen, biotin-AF4 peptide, FLAG-AF9, single point; inhibition, % at 10 µM; Protein AF-9 (Homo sapiens), P42568; 0.47% of 350,000 active;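 active means every replicate reaching a set inhibition limit, whatever the replicate mean, cut at about 25% in these data; inconclusive means mean inhibition reaches that limit but some replicates miss it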;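 further: 0% = plate neutral control median and 100% = total signal loss; the record names both 10 and 1 µM as test concentration; the first replicate is given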
Target sequence (P42568 whole entry, looked up): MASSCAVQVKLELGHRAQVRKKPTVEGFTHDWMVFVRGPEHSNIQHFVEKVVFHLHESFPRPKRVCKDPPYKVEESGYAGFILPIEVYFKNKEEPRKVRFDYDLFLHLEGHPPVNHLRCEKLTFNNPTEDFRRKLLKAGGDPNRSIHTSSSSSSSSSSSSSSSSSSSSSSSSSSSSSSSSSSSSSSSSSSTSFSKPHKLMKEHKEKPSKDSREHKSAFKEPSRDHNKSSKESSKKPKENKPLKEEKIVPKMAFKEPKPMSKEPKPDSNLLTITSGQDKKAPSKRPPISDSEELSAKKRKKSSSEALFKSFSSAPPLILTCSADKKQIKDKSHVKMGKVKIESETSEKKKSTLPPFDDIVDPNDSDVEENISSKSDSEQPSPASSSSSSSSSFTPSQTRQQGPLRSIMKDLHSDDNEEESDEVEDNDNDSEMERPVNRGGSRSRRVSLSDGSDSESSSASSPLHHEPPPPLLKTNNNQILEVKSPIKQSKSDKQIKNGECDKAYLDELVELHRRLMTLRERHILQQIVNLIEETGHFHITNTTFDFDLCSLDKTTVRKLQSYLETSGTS
Bfl-1 A1 inh = caspase 3/7 activation in MEF A1-2A-BIM cells, primary screen, A1 inhibitor project, cell-based, luminescence, HTS; Caspase-Glo 3/7 luminescence, 3 h; percent of clofoctol response, vehicle zero; 0.066% of 330,000 active; AID 2462, 2010; caspase activation, % (concentration not given with the values);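 active means over half of replicate activation scores above 10%, or exactly half above 10 with the replicate mean above 10; inconclusive means replicate mean below 10 yet half the replicates above 10; inactive means over half of replicates below 10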;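 further: wells of about 30 µL received 50 nL stock; many hits fall short of the cut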
Calb FLC = C. albicans growth inhibition with fluconazole, primary screen, CaCi-2 strain, Alamar Blue fluorescence. growth inhibition, % (no concentration beside the values). 0.57% of 300,000 active. AID 1979, 2009. C. albicans CaCi-2 (fluconazole-resistant clinical isolate) + fluconazole, 48 h;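 active means most replicates above 75%; inconclusive means exactly half above 75%; inactive means most below 75%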;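 further: all wells also contain fluconazole at 8 µg/ml as a sub-toxic cotreatment; 0% = median of DMSO wells and 100% = median of geldanamycin control wells; wells of about 8 µL received 7.5 nL stock; the first replicate is given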
T cruzi inh = inhibitors of intracellular T. cruzi growth, primary screen, luminescence, NIH3T3 host cells | T. cruzi beta-gal in NIH3T3, 90 h | inhibition, % (test concentration not listed) | 1.4% of 300,000 active | AID 1885, 2009;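 active means mean inhibition across valid replicates above about 55%, limit read from the data; inconclusive means mean below that limit but half or more replicates reach it; inactive means mean below it, under half of replicates reach it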;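 further: signal also drops with host cell toxicity which is not excluded here; 0% = plate median of DMSO wells and 100% = zero luminescence signal; higher percent means less beta-gal luminescence so fewer parasites; stock transfer was 50 nL into about 50 µL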
Ecoli rRNA inh OD600 = recorded beside Ecoli rRNA inh, whose call it bears; OD600 change, %; measured here: OD600 growth;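 optical density of the mix in the first replicate; 0 = DMSO median and -100 = no signal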
Ecoli rRNA inh RFP = second read-out of Ecoli rRNA inh, no call of its own (marks repeat the call); RFP signal change, %; measured here: RFP humanized mutant strains;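 first replicate; 0 = DMSO median and -100 = no signal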
Numbers without * were called inactive. These rows are one share of the data; count on the stated rates, not on these rows.

What do the screens show for `COc1ccc(-c2oc(=O)c3cc(OC)c(OC)cc3c2/C=C/c2ccc(F)cc2)cc1`?
Beta cell apopt: 2; Ecoli rRNA inh: 7; MLL AF4-AF9 inh: 0.7; Bfl-1 A1 inh: -0.5; Ecoli rRNA inh OD600: 10; Ecoli rRNA inh RFP: -1.6

What do the screens show for `CCOc1ccc(N(CC(=O)N/N=C/c2ccccn2)S(=O)(=O)c2ccc(Cl)cc2)cc1`?
Beta cell apopt: 12; Ecoli rRNA inh: -54; MLL AF4-AF9 inh: 5.5; Bfl-1 A1 inh: -0.1; Calb FLC: -5; Ecoli rRNA inh OD600: -78; Ecoli rRNA inh RFP: -17

Results for O=C(CN(CCCN1CCOCC1)C(=O)Cn1nnc(-c2ccc(F)cc2)n1)NC1CCCCC1 ?
RanGTP-Imp inh: -0.1; Vif A3G: -5%; Bfl-1 A1 inh: -1.2; Calb FLC: -9; T cruzi inh: 19

Results for COc1cc(/C=N/n2c(-c3ccccc3)n[nH]c2=S)cc(OC)c1OC ?
RanGTP-Imp inh: -5.5; Beta cell apopt: 7; Vif A3G: 1%; Ecoli rRNA inh: 1; MLL AF4-AF9 inh: 12; Bfl-1 A1 inh: 0.7; Calb FLC: -11; T cruzi inh: -9; Ecoli rRNA inh OD600: 2; Ecoli rRNA inh RFP: 5.2

Results for CCOC(=O)c1cnc(SC)nc1Oc1cccc(NC(=O)c2ccc(C)cc2)c1 ?
RanGTP-Imp inh: 1.6; Beta cell apopt: -1; Vif A3G: 7%; Bfl-1 A1 inh: 0.8; Calb FLC: 4; T cruzi inh: -1

How did O=C(O)CCN=CC1=C(O)CC(c2ccccc2)CC1=O (stereo unspecified) do in these assays?
RanGTP-Imp inh: 2.6; Beta cell apopt: 3; Ecoli rRNA inh: 13; MLL AF4-AF9 inh: -0.7; Bfl-1 A1 inh: 1.4; Calb FLC: -1; T cruzi inh: -9; Ecoli rRNA inh OD600: 10; Ecoli rRNA inh RFP: 1.2

Results for O=C(CO/N=C/c1ccc(Cl)cc1Cl)NNC(=O)c1ccc(Cl)cc1Cl ?
RanGTP-Imp inh: 1.9; Beta cell apopt: -2; Vif A3G: -2%; Ecoli rRNA inh: 23; MLL AF4-AF9 inh: 3.7; Bfl-1 A1 inh: 0.1; Calb FLC: 8; T cruzi inh: -20; Ecoli rRNA inh OD600: -1; Ecoli rRNA inh RFP: -0.5

How did CCOCC(=O)Nc1ccc([N+](=O)[O-])cc1OC do in these assays?
RanGTP-Imp inh: -2.8; Beta cell apopt: -10; Vif A3G: 5%; Ecoli rRNA inh: 12; MLL AF4-AF9 inh: -3.9; Bfl-1 A1 inh: 0.3; Calb FLC: -1; T cruzi inh: 1; Ecoli rRNA inh OD600: 13; Ecoli rRNA inh RFP: 1.4

What do the screens show for `COc1ccc(OC)c(NC(=O)COC(=O)CSc2ccc(Cl)cc2)c1`?
RanGTP-Imp inh: 2.7; Beta cell apopt: 2; Vif A3G: -4%; Bfl-1 A1 inh: 0.2; Calb FLC: -4; T cruzi inh: -7

Results for O=C1CN(C(=O)CSc2nnnn2-c2ccc(Cl)cc2)c2ccccc2N1 ?
RanGTP-Imp inh: 1.3; Beta cell apopt: -1; Vif A3G: 0%; Ecoli rRNA inh: -22; MLL AF4-AF9 inh: -0.7; Bfl-1 A1 inh: -0.1; Calb FLC: 0; T cruzi inh: 13; Ecoli rRNA inh OD600: -28; Ecoli rRNA inh RFP: -6.3

How did COc1ccc(NC(=O)C2(c3cccs3)CCOCC2)cc1 do in these assays?
RanGTP-Imp inh: 1.6; Beta cell apopt: -5; Vif A3G: -12%; Ecoli rRNA inh: 3; MLL AF4-AF9 inh: 3.4; Bfl-1 A1 inh: 0.0; Calb FLC: 1; T cruzi inh: -4; Ecoli rRNA inh OD600: 0; Ecoli rRNA inh RFP: -5.4

What do the screens show for `O=C(N/N=C/c1ccc2c(c1)OCO2)C(=O)Nc1cccc(Cl)c1`?
RanGTP-Imp inh: 3.5; Beta cell apopt: -2; Vif A3G: -5%; Ecoli rRNA inh: 5; MLL AF4-AF9 inh: -2.1; Bfl-1 A1 inh: -0.3; Calb FLC: -1; T cruzi inh: -8; Ecoli rRNA inh OD600: 9; Ecoli rRNA inh RFP: -2.1

How did CCCn1nc(C(=O)NNC(=O)CCCOc2ccc(C)cc2)c2ccccc2c1=O do in these assays?
RanGTP-Imp inh: -1.3; Beta cell apopt: -7; Vif A3G: 2%; Ecoli rRNA inh: 16; MLL AF4-AF9 inh: -1.5; Bfl-1 A1 inh: 1.5; Calb FLC: 2; T cruzi inh: -3; Ecoli rRNA inh OD600: 20; Ecoli rRNA inh RFP: 0.6

Results for CCN(c1cccc(C)c1)S(=O)(=O)c1cnc[nH]1 ?
RanGTP-Imp inh: -1.1; Beta cell apopt: -15; Vif A3G: 79%; Bfl-1 A1 inh: 0.3; Calb FLC: -4; T cruzi inh: -9

What do the screens show for `C=CCn1c(SCC(=O)Nc2ccc3c(c2)OCCO3)nnc1-c1ccco1`?
RanGTP-Imp inh: 1.0; Beta cell apopt: 0; Vif A3G: -3%; Ecoli rRNA inh: -17*; MLL AF4-AF9 inh: -27; Bfl-1 A1 inh: 0.0; Calb FLC: 0; T cruzi inh: 0; Ecoli rRNA inh OD600: 1.1*; Ecoli rRNA inh RFP: 0.8*

How did Cc1c(C(=O)NC(=S)N(Cc2ccccc2)c2ccccn2)cccc1[N+](=O)[O-] do in these assays?
Beta cell apopt: 0; Vif A3G: -7%; Ecoli rRNA inh: 4; MLL AF4-AF9 inh: 1.9; Bfl-1 A1 inh: 0.3; Ecoli rRNA inh OD600: 3; Ecoli rRNA inh RFP: -1.6

Results for Cc1cccnc1NC(=S)NC(=O)c1oc2ccccc2c1C ?
RanGTP-Imp inh: 1.1; Beta cell apopt: 1; Ecoli rRNA inh: 1; MLL AF4-AF9 inh: 3.6; Bfl-1 A1 inh: -0.5; Calb FLC: -1; T cruzi inh: -4; Ecoli rRNA inh OD600: 6; Ecoli rRNA inh RFP: -1.4

Results for CC/C(=N\NC(N)=O)c1ccc(OC(F)F)cc1 ?
RanGTP-Imp inh: inconclusive; Beta cell apopt: 0; Vif A3G: 11%; Ecoli rRNA inh: 1; MLL AF4-AF9 inh: 1.7; Bfl-1 A1 inh: 1.0; Calb FLC: 3; T cruzi inh: -15; Ecoli rRNA inh OD600: 4; Ecoli rRNA inh RFP: 2.8

Results for O=C(O)CSCC(=O)Nc1ccc(-c2nc3ccccc3s2)cc1 ?
RanGTP-Imp inh: -1.5; Beta cell apopt: 0; Vif A3G: -20%; Ecoli rRNA inh: -18; MLL AF4-AF9 inh: -6.4; Bfl-1 A1 inh: -8.7; Calb FLC: -4; T cruzi inh: -3; Ecoli rRNA inh OD600: -14; Ecoli rRNA inh RFP: -0.1

Results for COc1cc([N+](=O)[O-])cc(/C=N/NC(=O)c2ccc(NC(=O)c3ccc(C)cc3)cc2)c1O ?
RanGTP-Imp inh: 2.6; Vif A3G: 7%; Ecoli rRNA inh: 5; MLL AF4-AF9 inh: 8.4; Calb FLC: 102*; T cruzi inh: 8; Ecoli rRNA inh OD600: 2; Ecoli rRNA inh RFP: -13

How did Cc1[nH]c2ccccc2c1/C=N/Nc1nc2ccccc2[nH]1 do in these assays?
RanGTP-Imp inh: 3.8; Beta cell apopt: 118*; Vif A3G: 8%; Ecoli rRNA inh: -47*; MLL AF4-AF9 inh: 22; Bfl-1 A1 inh: -0.5; Calb FLC: -14; T cruzi inh: inconclusive; Ecoli rRNA inh OD600: -27*; Ecoli rRNA inh RFP: -13*

Results for COc1ccc(CN2CCNC(=O)C2CC(=O)NCC2CCOCC2)cc1C (stereo unspecified) ?
RanGTP-Imp inh: -3.2; Ecoli rRNA inh: 14; MLL AF4-AF9 inh: -15; Calb FLC: 2; T cruzi inh: -7; Ecoli rRNA inh OD600: 18; Ecoli rRNA inh RFP: 2.7

Results for O=S(=O)(Cc1ccccc1)N1CCN(C2Cc3ccccc3C2)CC1 ?
RanGTP-Imp inh: -1.1; Beta cell apopt: 2; Vif A3G: -1%; Bfl-1 A1 inh: -0.1; Calb FLC: -1; T cruzi inh: 3

Results for CC(Oc1ccc(Cl)cc1Cl)C(=O)NNC(=O)c1cccnc1 (stereo unspecified) ?
RanGTP-Imp inh: 2.1; Beta cell apopt: -4; Ecoli rRNA inh: 2; MLL AF4-AF9 inh: -2.3; Bfl-1 A1 inh: -0.2; T cruzi inh: 1; Ecoli rRNA inh OD600: -2; Ecoli rRNA inh RFP: -3.5

Results for COc1ccc(/C=C/C(=O)Oc2ccc(C)cc2)cc1 ?
RanGTP-Imp inh: -0.1; Ecoli rRNA inh: 3; MLL AF4-AF9 inh: -2.3; Bfl-1 A1 inh: -0.2; Calb FLC: -11; T cruzi inh: -27; Ecoli rRNA inh OD600: 9; Ecoli rRNA inh RFP: -1.2

What do the screens show for `COc1cccc(NC(=O)C2CCCN2C(=O)Nc2ccccc2F)c1` (stereo unspecified)?
RanGTP-Imp inh: -2.9; Beta cell apopt: 1; Vif A3G: -2%; Bfl-1 A1 inh: 0.8; Calb FLC: -13; T cruzi inh: -8

How did Cc1ccc(-n2c(SCC(=O)N3CCCc4ccccc43)nnc2-c2cccnc2)c(C)c1 do in these assays?
RanGTP-Imp inh: -4.2; Beta cell apopt: -1; Vif A3G: -8%; Ecoli rRNA inh: 9; MLL AF4-AF9 inh: 0.8; Bfl-1 A1 inh: 0.7; Calb FLC: 3; T cruzi inh: 9; Ecoli rRNA inh OD600: 18; Ecoli rRNA inh RFP: 1.7

Results for Cc1ccc(NC(=S)N2CCC(NC(=O)c3cccc(F)c3)CC2)cc1 ?
RanGTP-Imp inh: 3.4; Beta cell apopt: -3; Ecoli rRNA inh: -1; MLL AF4-AF9 inh: -24; Bfl-1 A1 inh: -0.5; Calb FLC: -5; T cruzi inh: -9; Ecoli rRNA inh OD600: 1; Ecoli rRNA inh RFP: -2.4
